HCMV UL50-53 inh = disrupts HCMV UL50-UL53 complex binding | HTRF UL50-UL53 interaction, normalized percent inhibition | AID 1918969 | hit rate 0.15% among 190,000 | inhibition, % (concentration not given with the values);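 active means both replicates at 50% or more, plus weaker picks with an unusually low signal ratio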;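 further: stock transfer was 100 nL into about 20 µL; 0% = negative control wells and 100% = wells with untagged competitor protein; inactives centre near -12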
* hit, by the source's call; & = joins results of further samples. Not all compounds are listed; the hit share may differ from the screen's.

Screening N#C/C(=C/Nc1ccccc1)c1ccsc1 returned HCMV UL50-53 inh -10.8.
For CCOc1ccc(-c2ncnn2-c2ccc(Cl)cc2)cc1 the results were HCMV UL50-53 inh -6.4.
`COCCn1c(-c2ccccc2)nc2ccccc21` gave HCMV UL50-53 inh -5.8.
For COc1ccc2oc(=O)c(C(=O)n3ccnc3C)cc2c1 the results were HCMV UL50-53 inh -29.3.
`c1ccc(-n2ncc3c(NCC4CCCO4)ncnc32)cc1` (centres undefined) gave HCMV UL50-53 inh -10.2.
`CCOC(=O)c1cnc2c(ccc3[nH]snc32)c1=O` gave HCMV UL50-53 inh -36.5.
Screening CCOC(=O)c1sc(NC(=O)c2cccs2)nc1-c1ccccc1 returned HCMV UL50-53 inh -18.7.
For Cc1nn(C)cc1-c1ccnc(NC(CC(C)(C)C)c2cccnc2)n1 (centres undefined) the results were HCMV UL50-53 inh -14.7.
CN=C(NC)NCc1ccccc1 was read as HCMV UL50-53 inh -27.3.
CCN(CC)c1ncnc2c1cnn2Cc1ccc(Cl)cc1 was read as HCMV UL50-53 inh -3.7.
`Cc1cc(Nc2ccccc2)n(-c2ccccc2)n1` gave HCMV UL50-53 inh 7.3.
O=C(CSc1nnc2n1CCCCC2)c1ccc(Cl)cc1 was read as HCMV UL50-53 inh -11.7.
Screening Cc1ccc(NC(=O)CSc2cn(C)c3ccccc23)cc1 returned HCMV UL50-53 inh -15.3.
`Cc1cc([N+](=O)[O-])ccc1NS(=O)(=O)c1cc(Cl)ccc1Cl` gave HCMV UL50-53 inh -19.2.
`COc1cc(/C=C2/SC(=S)N(Cc3ccccc3)C2=O)ccc1OCC(N)=O` gave HCMV UL50-53 inh -4.8.
For Cc1cc(Cl)ccc1OCc1cn2cccnc2n1 the results were HCMV UL50-53 inh -2.5.
Cc1ccc(NC(=O)CSc2nnc(NC(=O)C3CCCCC3)s2)cc1 was read as HCMV UL50-53 inh -24.4.
COc1cc(/C=C2\SC(=S)N(c3cccc(C(F)(F)F)c3)C2=O)ccc1O was read as HCMV UL50-53 inh 4.4.
COc1ccc(CNc2ncc(C#N)cn2)cc1 was read as HCMV UL50-53 inh -5.4.
C[C@H](NC(=O)Cc1cc(F)cc(F)c1)C(=O)N[C@H](C(=O)OC(C)(C)C)c1ccccc1 was read as HCMV UL50-53 inh 1.8.

Arranged by SMILES length (largest number first): 3 of the compounds above
`COc1cc(/C=C2/SC(=S)N(Cc3ccccc3)C2=O)ccc1OCC(N)=O` gave HCMV UL50-53 inh -4.8.
For COc1ccc2oc(=O)c(C(=O)n3ccnc3C)cc2c1 the results were HCMV UL50-53 inh -29.3.
CN=C(NC)NCc1ccccc1 was read as HCMV UL50-53 inh -27.3.

New compounds follow.
For CCNc1ncc(-c2cc(C(=O)N(C)CCN(C)C)c3cc(F)ccc3n2)cn1 the results were HCMV UL50-53 inh -26.2&-26.2.
Screening O=C(c1cccc(Cl)c1F)N1CCN(Cc2cccc(Nc3nccs3)n2)CC1 returned HCMV UL50-53 inh -9.3.
For Cc1c(C(=O)NCCN2CCOCC2)sc2nc(-c3ccccc3)cn12 the results were HCMV UL50-53 inh 1.2.
`CCOc1ccccc1C(=O)Nc1ccc(-n2nncc2C(C)(C)C)cc1` gave HCMV UL50-53 inh 1.3.
CCN1C(=O)S/C(=C\c2cccc(Cl)c2)C1=O was read as HCMV UL50-53 inh 0.9.
Screening O=C(Nc1ccc(Br)cc1)c1cc(=O)c2ccccc2o1 returned HCMV UL50-53 inh -13.0.
Screening Cc1ccc2oc(C(=O)N(Cc3ccccc3)C3CCS(=O)(=O)C3)c(C)c2c1 (centres undefined) returned HCMV UL50-53 inh 0.0.
Cc1ccc(OCC(=O)Nc2sc3c(c2C(N)=O)CCCC3)cc1 was read as HCMV UL50-53 inh -10.0.
O=C1OC(OC(=O)c2cccnc2Nc2cccc(C(F)(F)F)c2)c2ccccc21 (centres undefined) was read as HCMV UL50-53 inh -1.4.
Screening CCC(=O)Oc1ccc(N2C(=O)CCC2=O)cc1 returned HCMV UL50-53 inh 1.7.
COc1ccc(CNc2ncnc3nc[nH]c23)cc1 was read as HCMV UL50-53 inh -2.5.
Cc1nc(N(C)C(=O)Cc2ccc(-c3ccccn3)cc2)sc1S(N)(=O)=O was read as HCMV UL50-53 inh 0.3.
For COC(=O)/C=C/c1cccc(Br)c1 the results were HCMV UL50-53 inh -13.8.
For CC(=O)OCC(=O)[C@]1(O)CC[C@H]2[C@@H]3CCC4=CC(=O)CC[C@]4(C)[C@@H]3C(=O)C[C@@]21C the results were HCMV UL50-53 inh -4.3.
CCOC(=O)C(CC)Sc1ncnc2nc[nH]c12 (centres undefined) was read as HCMV UL50-53 inh -7.5.
`Cc1ccc(NC(=O)c2cc(S(=O)(=O)N3CCCC3)ccc2F)cc1` gave HCMV UL50-53 inh -1.6.
CCCCC[C@H](O)/C=C/[C@@H]1[C@@H](C/C=C\CCCC(=O)NCCO)[C@@H](O)C[C@@H]1O was read as HCMV UL50-53 inh -22.6&-22.6.
For O=C(NCc1ccco1)c1cc(C(=O)C2CC2)c[nH]1 the results were HCMV UL50-53 inh -1.2.
`COc1ccc(NC(=O)COc2cccc(OCC(C)C)c2)cc1` gave HCMV UL50-53 inh 5.8.
Screening COc1cc(C)c(/C=C/C(C)=C/C=C/C(C)=C/C(=O)O)c(C)c1C returned HCMV UL50-53 inh -50.4.

Of the compounds above, these have an NH in an aromatic ring.
`CCOC(=O)c1cnc2c(ccc3[nH]snc32)c1=O` gave HCMV UL50-53 inh -36.5.
COc1ccc(CNc2ncnc3nc[nH]c23)cc1 was read as HCMV UL50-53 inh -2.5.
CCOC(=O)C(CC)Sc1ncnc2nc[nH]c12 (centres undefined) was read as HCMV UL50-53 inh -7.5.
For O=C(NCc1ccco1)c1cc(C(=O)C2CC2)c[nH]1 the results were HCMV UL50-53 inh -1.2.

The list goes on:
`C[C@@H](NC(=O)N[C@H]1C[C@H]2C(=O)N[C@H](Cc3ccc(O)cc3)C(=O)N2C1)c1ccccc1` gave HCMV UL50-53 inh -1.1.
For CC1/C=C/C=C/C=C/C=C/C=C/C=C/C=C/C(O[C@@H]2O[C@H](C)[C@H](O)[C@@H](O)[C@@H]2N)CC(O)C(C(=O)O)C(O)CC(=O)CC(O)CC(O)CC(O)CC(=O)CCCC(=O)CC(=O)OC1C(C)CC(C)C(O)CC(=O)c1ccc(N)cc1 (some centres undefined) the results were HCMV UL50-53 inh -71.5.
N[C@@H](CCC(=O)N[C@@H](CSN=O)C(=O)NCC(=O)O)C(=O)O was read as HCMV UL50-53 inh -7.3&-7.3.
Cc1sc(NC(=O)c2ccco2)c(C(c2ccncc2)N2CCOCC2)c1C (centres undefined) was read as HCMV UL50-53 inh 13.3&0.9.
COc1ccc(CCN(C)CCCOc2ccc(S(=O)(=O)c3c(C(C)C)c4ccccc4n3C)cc2)cc1OC was read as HCMV UL50-53 inh -0.4.
Screening CCC(=O)[C@@]1(C)[C@H](C)C[C@H]2[C@@H]3CCC4=CC(=O)C=C[C@]4(C)[C@H]3[C@@H](O)C[C@@]21C returned HCMV UL50-53 inh -6.3.
`Cc1cc(NC(=O)C2=COCCO2)no1` gave HCMV UL50-53 inh -5.0.
Screening Cc1c(C(=O)NC2CCCCC2)sc2nc3ccc(N)cc3n12 returned HCMV UL50-53 inh 6.3.
CC1CC(C)CN(Cc2nc3c(c(=O)n(C)c(=O)n3C)n2CCCO)C1 (centres undefined) was read as HCMV UL50-53 inh 4.0.
COc1cccc2c1C(=O)c1c(O)c3c(c(O)c1C2=O)C[C@@](O)(C(=O)CO)CC3O[C@H]1CC(N)C(O)C(C)O1 (some centres undefined) was read as HCMV UL50-53 inh -190.3&-179.1.
`CCOC(=O)C1=C(c2ccccc2)OC(N)=C(C#N)C1CC(C)C` (centres undefined) gave HCMV UL50-53 inh -0.9.
Screening NC(=O)c1c(NC(=O)C2=COCCO2)sc2c1CCC2 returned HCMV UL50-53 inh -0.9.
For O=c1oc2cc(O)ccc2s1 the results were HCMV UL50-53 inh 2.6.
Screening O[C@@H]1[C@@H](O)C=C2CCN3Cc4cc5c(cc4[C@H]1C23)OCO5 (some centres undefined) returned HCMV UL50-53 inh -30.4.
`CCOCC(=O)NCc1ccc2c(c1)cc(C)n2C` gave HCMV UL50-53 inh 0.1.
`O=C(CSc1c[nH]c2ccccc12)N1CCN(c2ccccc2)CC1` gave HCMV UL50-53 inh -16.4.
For CCC(=O)c1c(O)cc(O)cc1O the results were HCMV UL50-53 inh 4.0.
For O=C(NCc1nc2ccccc2[nH]1)c1ccccc1 the results were HCMV UL50-53 inh -23.1.
For Cc1c(C)c2c(c(C)c1O)CCC(C)(CCCC(C)C(=O)O)O2 (centres undefined) the results were HCMV UL50-53 inh -34.4&-34.4.
For [O-]/[N+](=N/O[C@@H]1O[C@H](CO)[C@H](O)[C@H](O)[C@H]1O)N1CCCC1 the results were HCMV UL50-53 inh -23.3&-23.3.

Filtered by structure: those above containing bromine.
Screening O=C(Nc1ccc(Br)cc1)c1cc(=O)c2ccccc2o1 returned HCMV UL50-53 inh -13.0.
For COC(=O)/C=C/c1cccc(Br)c1 the results were HCMV UL50-53 inh -13.8.

Additional results:
`O=C(c1ccc(F)cc1)c1cn(-c2ccc(F)c(Cl)c2)nn1` gave HCMV UL50-53 inh 0.4.
For c1ccc(-c2cn3c(nc4ccccc43)s2)cc1 the results were HCMV UL50-53 inh -14.0.
For N/C(=N\O)c1ccccc1-n1cccc1 the results were HCMV UL50-53 inh 1.7.
C=COCC(F)(F)F was read as HCMV UL50-53 inh -68.2.
CCCCCCCC/C=C\CCCCCCCC(=O)C(F)(F)F was read as HCMV UL50-53 inh -18.0&-18.0.
O=c1cc(CSc2n[nH]c(-c3cccs3)n2)c2ccc(O)cc2o1 was read as HCMV UL50-53 inh -40.4.
For CCc1nc2ccccc2n1C(=O)c1ccccc1C(=O)O the results were HCMV UL50-53 inh 9.7.
CSc1nnc(CSc2ncccn2)n1CCc1ccccc1 was read as HCMV UL50-53 inh -8.4.
Screening CN(C)c1ccc(-c2nc3ncc(Cl)c(N4CCN(CC(=O)Nc5nccs5)CC4)c3[nH]2)cc1 returned HCMV UL50-53 inh -10.8.
For CN(Cc1nc2ccc(Cl)cc2[nH]1)C(=O)c1n[nH]c2ccccc12 the results were HCMV UL50-53 inh -16.0&-16.0.
CC(C)(C)NC1c2cccc3cccc(c23)C1NS(=O)(=O)c1ccccc1 (centres undefined) was read as HCMV UL50-53 inh -7.6.
Screening Cc1ccc(NC(=O)CSc2nnc(NC(=O)CC(C)C)s2)cc1 returned HCMV UL50-53 inh 8.4&0.6.
For CC(C)(CCl)C(=O)Nc1ccc(C(F)(F)F)cc1 the results were HCMV UL50-53 inh -33.1.
For FC(F)(F)c1cccc(Oc2cnc3ccccc3n2)c1 the results were HCMV UL50-53 inh 8.1.
For NC(=NC(=O)c1cccc(C(F)(F)F)c1)c1ccc(C(F)(F)F)cn1 the results were HCMV UL50-53 inh -7.3.
Cc1ccc(C)c2[nH]c(=O)c(CCNC(=O)c3cccs3)cc12 was read as HCMV UL50-53 inh -16.3.
`CC(C)Cn1c(CCNC(=O)C(C)(C)C)nc2ccccc21` gave HCMV UL50-53 inh -12.4.
For COc1ccccc1N/C=C(\C#N)c1ccc(Cl)cc1 the results were HCMV UL50-53 inh -6.4.
COc1ccc(C#CC(=O)O)cc1 was read as HCMV UL50-53 inh -10.1.
Screening CC(C)(CO)NC(=O)c1ccccc1F returned HCMV UL50-53 inh -10.3.
`Cc1ccc(-c2nc(C)sc2C)cc1` gave HCMV UL50-53 inh -3.9.
For CCCCC1(C)Cc2ccccc2C(=O)N1 (centres undefined) the results were HCMV UL50-53 inh -26.0.
`CCN1CCN(Cc2ccc(C(=O)Nc3ccc(C)c(NCc4cnc(NC(=O)OC)cn4)c3)cc2C(F)(F)F)CC1` gave HCMV UL50-53 inh -12.4.
For CCCn1c2ccccc2c2nc3ccccc3nc21 the results were HCMV UL50-53 inh -9.2.
For O=C(Nc1ccc(-c2nc3ccccc3s2)cc1)C1=COCCO1 the results were HCMV UL50-53 inh 9.1&0.4.
Screening O=C(NC1CCCCC1)c1ccc(NC2=NC3CS(=O)(=O)CC3S2)cc1 (centres undefined) returned HCMV UL50-53 inh -3.5.
Screening Cc1[nH]ccc2c1[nH]c1cc(=O)ccc12 returned HCMV UL50-53 inh -22.8.
`Cc1ccc2nc(-c3ccc(NC(=O)C4CC4)cc3)sc2c1` gave HCMV UL50-53 inh -2.0.
Cc1cc(N(C)Cc2ccccc2)ncn1 was read as HCMV UL50-53 inh -15.9.
Screening Cc1ccc(COc2ccc3ccc(=O)oc3c2)cc1 returned HCMV UL50-53 inh -25.1.
`COc1ccc2c(C)cc(N3CC(C)OC(C)C3)nc2c1` (centres undefined) gave HCMV UL50-53 inh -4.4.
O=C1CCCC1c1cc(NS(=O)(=O)c2ccc(Cl)cc2)ccc1O (centres undefined) was read as HCMV UL50-53 inh -20.7.
Screening CCCCCCCCC#CCCCCCCCC(=O)c1nc2ncccc2o1 returned HCMV UL50-53 inh -14.9&-14.9.
For Ic1cc(-c2ccccc2)ncn1 the results were HCMV UL50-53 inh -4.3.
`Cc1cc(NC(c2ccccn2)c2c(C)[nH]c3ccccc23)no1` (centres undefined) gave HCMV UL50-53 inh 5.9&-9.6.
COc1cccc(N/C=C(\C#N)c2nc(-c3ccccc3)cs2)c1 was read as HCMV UL50-53 inh 16.4.
`O=C(c1c2c(nc3ccccc13)CCCC2)N1CCOCC1` gave HCMV UL50-53 inh -4.4.
Screening OCc1ccc(O)c2ncccc12 returned HCMV UL50-53 inh -29.7.
Cc1ccc(N=Cc2ccccc2O)c(C(=O)c2ccccc2)c1 was read as HCMV UL50-53 inh -28.4.
`Cc1sc(/N=C/c2c[nH]c3ccccc23)c(C#N)c1C` gave HCMV UL50-53 inh 4.1.
For CC/C=C\C/C=C\C/C=C\C/C=C\C/C=C\C/C=C\CCC(=O)O the results were HCMV UL50-53 inh -15.2&-15.2&3.9.
`CCCCC[C@H](O)/C=C/[C@@H]1C(C/C=C\CCCCN(C)C)[C@@H](O)C[C@H]1O` (some centres undefined) gave HCMV UL50-53 inh -0.5&-0.5.
Screening O=C(NCCn1ccc2ccccc21)c1ccc(Br)o1 returned HCMV UL50-53 inh -6.3.
Cc1ccc(S(=O)(=O)N2CCC(C(=O)N3CCCC(C)C3)CC2)cc1 (centres undefined) was read as HCMV UL50-53 inh -5.9.
Screening Cn1ncc(NC(=O)CCc2cn3ccccc3n2)n1 returned HCMV UL50-53 inh -5.3.

Screening results (PubChem)
